Choline anaer gr: choline-fed anaerobic bacterial growth inhibition; Gram-negative bacterium anaerobic choline minimal medium, absorbance growth; active compounds read low; many inactives read as strong as hits in the columns shown; calls only; hit rate 0.2% among 55,000; AID 1963822;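 active = growth z-score on choline under -2 at 7 or 20 h with little or no fall on glycerol, limits in tiers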;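 also: stock transfer was 300 nL into about 50 µL; the organism is E. coli; final concentration not given here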
Choline anaer gr early: further read-out of Choline anaer gr, marked with its call; z-score; measured here: choline growth z-score, timepoint 1;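 score of optical density at 7 h as mean of two plates; lower means less growth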
An asterisk follows results filed as active; i = inactive; + = active, no number; & = joins results of further samples. Not all compounds are listed; the hit share may differ from the screen's.

Results follow in this order: Choline anaer gr	Choline anaer gr early
O=c1[nH]nc(-c2ccc(Br)cc2)c2c1Nc1nnnn1C2c1cccc(F)c1 (configuration not stated)
  i	1.04
CC(C)NC(=O)c1nc(Nc2ccc(F)cc2)c2ccccc2n1
  i	0.04
CCCCN(CC)c1ncc(NS(=O)(=O)CC)cc1C(=O)O
  i	0.26
CC(C)OC(=O)CCC/C=C\C[C@@H]1[C@@H](/C=C/[C@H](O)CCc2ccccc2)[C@H](O)C[C@@H]1O
  +	-2.08*
Cc1ccc(C(=O)Nc2cnc3oc(-c4ccc(C)cc4)nn3c2=O)cc1
  i	1.1
Cc1ccc(-n2ccn3c(CCC(=O)NCCc4ccc(S(N)(=O)=O)cc4)nnc3c2=O)cc1C
  i	-0.38
COc1cccc(NC(=O)c2ccc3noc(-c4ccc(Cl)cc4)c3c2)c1
  i	0.89
CC(C)C(=O)NCC1(N2CCOCC2)CCCCC1
  i	-1.77
CCc1onc(C)c1C1CCCN1Cc1ccc(C)cc1C (configuration not stated)
  i	-1.21
O=C(NCc1ccc(Br)cc1)c1cccc(Nc2ncc(-c3ccc(F)cc3)cn2)c1
  i	-0.06
CCCNC(=O)c1cccc(Nc2cc(-c3cccc(C)c3)ncn2)c1
  i	1.09
Cc1nc(-c2ccc(S(=O)(=O)N3CCc4ccccc4C3)cc2)co1
  i	0.74
Cc1cc(N2CCCC2)nc(N2CCN(C(=O)C(C)(C)C)CC2)n1
  i	-0.16
COc1ccc(N2CCN(S(=O)(=O)c3cc(-c4nc(C)cs4)sc3C)CC2)cc1
  i	0.41
O=C(Nc1cccc(C(=O)Nc2ccc(S(=O)(=O)O)c3cc(S(=O)(=O)O)cc(S(=O)(=O)O)c23)c1)Nc1cccc(C(=O)Nc2ccc(S(=O)(=O)O)c3cc(S(=O)(=O)O)cc(S(=O)(=O)O)c23)c1
  i	0.65
COc1ccc(NC(=O)CCc2nnc(C(=O)Nc3ccc(C)cc3)s2)c(OC)c1
  i	-0.57
CC1Cc2ccccc2N1C(=O)c1cccn(Cc2c(F)cccc2Cl)c1=O (configuration not stated)
  i	-0.42
O=C(NCc1ccc2c(c1)OCO2)c1cc2ccc3cccnc3c2[nH]1
  i	0.52
CCOc1ccc(NC(=O)C2CCCN(C(=O)c3cc(-c4ccncc4)n[nH]3)C2)cc1 (configuration not stated)
  i	1.03
Cc1cccc(NC(=O)c2ccc3c(c2)nnn3C)c1
  i	-0.29
CC(C)CN(Cc1ccccc1)Cc1cc(=O)n2nc(C(C)(C)C)sc2n1
  i	0.84
O=S(=O)(NCCc1nc2ccccc2n1S(=O)(=O)c1ccccc1)c1ccccc1
  i	-1.75
COc1cc2nc(N(C)CCCNC(=O)C3CCCO3)nc(N)c2cc1OC (configuration not stated)
  i	-0.13&0.56&-0.45
Clc1cccc(CNCc2ccc3nccnc3c2)c1
  i	-4.79
O=S(=O)(c1cc(-c2nnc(C3CC3)o2)cs1)N1CCCC1
  i	-0.37
CC1CCCCN1CCCNC(=O)c1nn(C)c2c1CCc1sccc1-2 (configuration not stated)
  i	-0.57
Cc1ccc2nc(NC(=O)C3CCN(C(=O)c4ccc(-c5noc(C)n5)cc4)CC3)sc2c1
  i	0.06
COc1ccc(-c2nn3c(NC4CCCC4)cc(C)nc3c2C)cc1OC
  i	0.82
COc1cccc(CNC(=O)C2Cc3ccccc3CN2S(=O)(=O)c2ccc(C)cc2)c1 (configuration not stated)
  i	-0.37
Cc1cc(C)c(NC(=O)C2CCN(S(=O)(=O)c3c(C)[nH]c(C)c3C(=O)N3CCCCC3)CC2)c(C)c1
  i	-0.07
CN1C(C(=O)c2ccccc2)=C(OC(=O)c2ccccc2Br)c2ccccc2S1(=O)=O
  i	1.77
O=C(NC1CCCC1)c1ccc2c(c1)N(Cc1ccccc1)CCS2
  i	-1.26
CCOCCCNC(=O)C1CCN(c2cc(C)nc3c(-c4ccc(OC)c(OC)c4)c(C)nn23)CC1
  i	0.04
CCOC(=O)c1c(C)oc2ncnc(NC(C(=O)OCC)C(C)O)c12 (configuration not stated)
  i	0.72
CCCn1cnnc1C1CCCN(Cc2ccc3cc[nH]c3c2)C1 (configuration not stated)
  i	-0.02
Cc1ccnc(SCC(=O)N2CCC(c3nc(-c4ccc(F)cc4)no3)CC2)n1
  i	0.09
Cc1nc(CN2C(=O)COc3cc(S(=O)(=O)N4CCN(C)CC4)c(Cl)cc32)no1
  i	-1.21
O=S(=O)(NCc1cccs1)c1ccc(-c2cnc(C3CCC3)o2)s1
  i	0.94
Cc1ccccc1-c1cc2n(C)c(C)c(CCC(=O)NC(C)C)c(=O)n2n1
  i	-0.38
COc1cc2c(cc1OC)CN([C@H]1CS(=O)(=O)C[C@@H]1S(=O)(=O)c1ccc(Cl)cc1)CC2
  i	0.19

Exported with each value named: 2 of the compounds above
O=S(=O)(c1cc(-c2nnc(C3CC3)o2)cs1)N1CCCC1
  Choline anaer gr: i; Choline anaer gr early: -0.37

COc1cc2c(cc1OC)CN([C@H]1CS(=O)(=O)C[C@@H]1S(=O)(=O)c1ccc(Cl)cc1)CC2
  Choline anaer gr: i; Choline anaer gr early: 0.19

Other entries.
Results follow in this order: Choline anaer gr	Choline anaer gr early
COc1cc(OC)c(NC(=O)C2CCCN(c3nc4cccnc4s3)C2)cc1Cl (configuration not stated)
  i	-0.29
Cc1cccn2c(=O)c(NC(=O)c3ccc(F)cc3)cnc12
  i	0
CCOc1ccc(NC(=O)c2oc3ccccc3c2C)c2cccnc12
  i	1
Cc1ccc(C(=O)N(Cc2nc3nc(C)cc(=O)n3[nH]2)c2ccc(C)cc2)cc1
  i	-0.24
Cc1ccc(NC(=O)Cn2c(=O)c3ccc(Cl)cc3n3nncc23)cc1
  i	-0.6
O=C(CCC1CCCC1)N1CCCN(c2nc3cc(Cl)ccc3n3cccc23)CC1
  i	1.76
COc1cccc(NC(=O)CCc2c(C)nn(-c3ccc4nncn4n3)c2C)c1
  i	-0.03
O=c1c2ccccc2n2c(SCc3ccccc3F)nnc2n1Cc1ccccc1
  i	0.28
CC(=O)Nc1ccc(N2CCN(CC(=O)N3CCCC3)CC2)c(C(=O)O)c1
  i	-0.42
Cc1ccc2[nH]cc(CCNC(=O)CN3C(=O)CSc4cccn4-c4ccccc43)c2c1
  i	-0.21
CCOc1ccc(Nc2nc(-c3nnn(-c4ccc(OCC)cc4)c3C)ns2)cc1
  i	-1.23
O=C(C1CCN(S(=O)(=O)c2ccc(-c3noc(-c4ccc5c(c4)OCO5)n3)cc2)CC1)N1CCCC1
  i	-0.73
COc1ccc(S(=O)(=O)Nc2ccc(-c3ccc(N4CCCC4)nn3)cc2)c(OC)c1
  i	-0.55
CN(C)/N=N/c1nc[nH]c1C(N)=O
  i	-0.24
Nc1nc2c(c(=O)[nH]1)C(c1cccc(Cl)c1)CC(=O)N2 (configuration not stated)
  i	0.29
CCOC(=O)c1c(NC(=O)Cn2c(-n3nc(C)cc3C)nc(C)c(C)c2=O)sc2c1CCCCC2
  i	0.36
Cc1ccc(CN(Cc2cc(=O)n3nc(-c4ccccc4)sc3n2)CC(C)C)cc1
  i	1.12
Cc1c2c(nc3c(C(=O)NCc4ccccc4Cl)cnn13)CCCC2
  i	0.17
CCCNC(=O)c1ccc2c(=O)n(-c3ccc(F)cc3)c(SCC(=O)c3c(C)[nH]c4ccccc34)nc2c1
  i	0.55
CCSc1nc2ccc(NS(=O)(=O)c3ccc(C)c(C)c3)cc2s1
  i	0.45
O=C(c1cccc(Nc2ncc(-c3cccc(F)c3)cn2)c1)N1CCCC1
  i	0.54
CCCC(=O)Nc1ccc(N2CCn3c(nc4cc(Cl)ccc43)C2)cc1
  i	0.14
Cc1ccc(N(Cc2nc3nc(C)cc(=O)n3[nH]2)S(=O)(=O)c2ccc(C)cc2)cc1
  i	-0.39
O=c1[nH]c2cc3c(cc2c(=O)n1CCCc1nc(-c2cccc(Br)c2)no1)OCO3
  i	1.02
Cc1ccnc(NC(c2cccnc2)c2c(NC(=O)c3ccccc3)sc(C)c2C)c1 (configuration not stated)
  i	-0.64
Cc1ccc(NC(=O)Nc2ccccc2Sc2cc(C)nc3ncnn23)c(Cl)c1
  i	0.52
O=C(c1ccsc1)N1CCN(S(=O)(=O)c2ccc3[nH]c(=O)sc3c2)CC1
  i	-0.26
CCOc1ccccc1CN1C(=O)c2ccc(-c3ccccc3)n2CC1(C)C(=O)NC1CCCC1 (configuration not stated)
  i	0.37
Cc1sc2c(c1C)CSC(C(=O)NCCc1ccc(S(N)(=O)=O)cc1)=C2
  i	-0.61
CCOc1ccc(OCC)c(Nc2c(C(=O)N3CCCCC3)cnc3ccc(F)cc23)c1
  i	-0.77
O=C(CC1c2ccccc2CCN1S(=O)(=O)c1ccc(F)cc1)NCc1ccc2c(c1)OCO2 (configuration not stated)
  i	0.01
CCCn1c(=O)[nH]c2cc(-c3noc(CN4C(=O)COc5ccccc54)n3)ccc21
  i	0.22
O=C(Nc1ccc(F)cc1)c1ccc(-n2nnc3cccnc32)cc1
  i	0.86
CCN1CCN(c2cc(C(=O)O)c3cc(NS(=O)(=O)c4ccc(C)c(C)c4)ccc3n2)CC1
  i	0.67
CCCc1cc(C2CCCN2S(=O)(=O)c2ccc(Cl)s2)no1 (configuration not stated)
  i	0.25
O=C(CC1CCN(C(=O)Nc2ccccc2)CC1)NCCCN1CCC(N2CCCCC2)CC1
  i	-0.56
Cc1ccc(-n2nnnc2CNC(=O)C2CCCCC2)cc1C
  i	-0.7
CCCC(=O)Nc1ccccc1Sc1nc(Cl)nn1Cc1ccccc1
  i	0.33
CSc1ncccc1-c1nc(-c2ccc3oc(C)nc3c2)no1
  i	-0.35
CCNC(=O)c1cnn2c3c(cnc12)CCCCCC3
  i	0.58
CCc1onc(C)c1C1CCCN1Cc1ccc(OC)c(CN2CCOCC2)c1 (configuration not stated)
  i	1.42
CCn1cc2nc(SCc3cc(F)cc(F)c3)n(Cc3ccccc3F)c(=O)c2n1
  i	0.94
O=S(=O)(O)c1cc(I)c(O)c2ncccc12
  i	-2.1
CCCNC(=O)Nc1cccc(-c2noc(-c3cccc(N(C)C)c3)n2)c1
  i	0.54
COc1ccc(-c2cc(OC(=O)c3ccc(C)cc3)c3c(C)oc(C)c3c(=O)c2)cc1OC
  i	0.09
O=C(CNS(=O)(=O)c1cc(-c2noc(C3CCC3)n2)cs1)Nc1ccc(Cl)cc1F
  i	0.49
O=C(CCCn1c(=O)c2cccn2c2ccc(Br)cc21)NC1CCCC1
  i	0.93
CC(=O)NC(C)c1nc(-c2ccccc2Cl)no1 (configuration not stated)
  i	1.07
CNCCCCOc1ccccc1Cc1ccccc1
  i	-0.35&-0.12
Cc1nc2ccccc2n(CCC(=O)N2CCN(c3ccccn3)CC2)c1=O
  i	-0.68
CCCNC(=O)c1ccc(-c2nc3cc(NS(=O)(=O)c4c(C)nn(C)c4C)ccc3n2C)cc1
  i	-0.1
COc1ccc(CNC(=O)c2ccc(CSc3nc4cccnc4n3Cc3ccccc3)cc2)cc1
  i	1.28
CCSc1nccc2c1ccn2CC(=O)NCc1ccc(OC)cc1OC
  i	0.66
CCc1noc2nc(C)nc(N3CCCC(C(=O)NC(C)C)C3)c12 (configuration not stated)
  i	-0.13
CSc1ncc(C(=O)NC2CC2)c(N)n1
  i	0.01
CC(=O)Nc1cccc(N2CCn3c(nc4cc(Cl)ccc43)C2)c1
  i	-0.47
COc1ccc(-n2nnc3c(sc4nc(C)ccc43)c2=O)cc1
  i	0.15
COc1ccc(NC(=O)N2CCOc3ccc(COCc4ccc(Cl)cc4)cc3C2)c(OC)c1
  i	1.4
O=C(NCC(c1cccnc1)N1CCc2ccccc2C1)C(=O)NC1CC1 (configuration not stated)
  i	0.35
COc1ccc(Cl)cc1S(=O)(=O)Nc1ccc2nncn2n1
  i	0.81

The listing continues:
Results follow in this order: Choline anaer gr	Choline anaer gr early
CNC(=O)C1CN(C(=O)NC2CCCCC2)CC12CCCC2 (configuration not stated)
  i	-0.26
Cc1cccc(S(=O)(=O)NC2CCN(c3ncnc4c3CCC4)C2)c1 (configuration not stated)
  i	0.68
Cc1ccc(C2C3=C(CC(C)(C)CC3=O)Nc3ccccc3N2C(=O)NCC2CCCO2)cc1 (configuration not stated)
  i	-0.03
CCCN1CCN(CCCNC(=O)C2=C(C)C(=O)OC23CCN(CC)CC3)CC1
  i	-1.33
CCOC(=O)c1nc2ccccc2nc1NCc1ccco1
  i	-0.89
O=S(=O)(c1ccc2c(c1)-c1oncc1CO2)N1CCN(c2ccc(F)cc2)CC1
  i	-1.03
Cc1ccc(Cc2c(C)nc3nc(SCC(=O)NCC4COc5ccccc5O4)nn3c2C)cc1 (configuration not stated)
  i	-1.15
Cc1nn(CC(=O)Nc2ccc3c(c2)nc2n3CCN(C(C)C)C2)c(=O)c2ccccc12
  i	0.3
O=C1c2cccnc2C(=O)N1Cc1ccc(F)cc1
  i	1.73
CCc1ccc(S(=O)(=O)c2cnc(N3CCCC(C)C3)nc2N)cc1 (configuration not stated)
  i	-2.39
CCC(=O)N1CCc2cc(N3CC(C(=O)NCc4cccs4)CC3=O)ccc21 (configuration not stated)
  i	-0.87
Cn1c(=O)n(-c2ccc3c(c2)OCO3)c2nc(-c3ccc(OCc4ccccc4)cc3)nc(C(N)=O)c21
  i	-1.07
OCCN1CCN(CCCN2c3ccccc3Sc3ccc(C(F)(F)F)cc32)CC1
  i	-0.05&-0.34&-0.8

Individual results from the list.
Under Choline anaer gr early, Cc1cccn2c(=O)c(NC(=O)c3ccc(F)cc3)cnc12 shows 0
Under Choline anaer gr early, COc1cc(OC)c(NC(=O)C2CCCN(c3nc4cccnc4s3)C2)cc1Cl (configuration not stated) shows -0.29
Under Choline anaer gr early, Cc1nc2ccccc2n(CCC(=O)N2CCN(c3ccccn3)CC2)c1=O shows -0.68
Under Choline anaer gr early, CCc1ccc(S(=O)(=O)c2cnc(N3CCCC(C)C3)nc2N)cc1 (configuration not stated) shows -2.39
Under Choline anaer gr early, Cc1c2c(nc3c(C(=O)NCc4ccccc4Cl)cnn13)CCCC2 shows 0.17
Under Choline anaer gr early, CCCC(=O)Nc1ccccc1Sc1nc(Cl)nn1Cc1ccccc1 shows 0.33

Screening data as filed in PubChem.
